Screens as filed in PubChem BioAssay.
Calb FLC: C. albicans growth modulation with fluconazole. C. albicans CaCi-2 (fluconazole-resistant clinical isolate) + fluconazole, Alamar Blue growth, 48 h. growth inhibition, % (no concentration beside the values). 300,000 tested, 0.57% active. AID 1979;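 active = most replicates above 75%; inconclusive = exactly half above 75%; inactive = most below 75%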;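 also: all wells also contain fluconazole at 8 µg/ml as a sub-toxic cotreatment; 0% = median of DMSO wells and 100% = median of geldanamycin control wells; wells of about 8 µL received 7.5 nL stock; the first replicate is given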
Vif A3G: HIV-1 Vif–A3G interaction blockers – biochemical, TR-FRET, GST-Vif 1-94, biotin-A3G peptide, dose response retest, primary screen (AID 1117319); TR-FRET GST-Vif / biotin-A3G peptide binding; higher % means a stronger effect; test concentration not given here; strong numbers were not always called active; inhibition, %; hits with a dose series show IC50 in µM; 260,000 tested, 0.57% active;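 active = above the screen mean plus three standard deviations and confirmed in dose response; inconclusive = results disagree or hit not tested in dose response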;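 also: Vif residues 1-94 fused to GST binding biotinylated APOBEC3G peptide 110-148; 0% = full assay without inhibitor and 100% = GST in place of GST-Vif; retest series ran down from 100 µM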
Beta cell apopt: beta cell apoptosis inhibition; INS-1E cytokine-induced death, ATP luminescence, 48 h; percent of positive-control rescue, neutral wells zero; protection from apoptosis, % (test concentration not listed); 300,000 tested, 0.8% active;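 active = all replicates at 75% or more, or half of them and the mean; inconclusive = half reach 75% but not the mean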;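 also: 0% = cytokine-treated negative control wells and 100% = positive control rescue; higher means more ATP so stronger rescue from cytokine killing; wells of about 40 µL received 100 nL stock; the first replicate is given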
A1 inh: inhibitors of the anti-apoptotic protein A1, read as caspase activation; 330,000 tested, 0.066% active; MEF A1-2A-BIM cells, Caspase-Glo 3/7 luminescence, 3 h; percent of clofoctol response, vehicle zero; caspase activation, % (concentration not given with the values); AID 2462;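 active = over half of replicate activation scores above 10%, or exactly half above 10 with the replicate mean above 10; inconclusive = replicate mean below 10 yet half the replicates above 10; inactive = over half of replicates below 10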;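 also: wells of about 30 µL received 50 nL stock; many hits fall short of the cut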
RanGTP-Impb inh: disruptors of Ran-importin-beta complex formation – biochemical, FRET, CFP-Ran, YFP-importin-beta, homogeneous, primary screen; cell-free CFP-Ran/YFP-importin-beta FRET ratio; inhibition, % (concentration not given with the values); 300,000 tested, 1.1% active; AID 2216;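 active = most replicates above 15%; inconclusive = exactly half above 15%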;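 also: 0% = DMSO wells and 100% = Ran loaded with GDP instead of GTP; wells of about 40 µL received 100 nL stock; the first replicate is given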
LANA-H2A inh: blocks KSHV LANA binding to histone H2A/H2B; Q9QR71; cell-free LANA-H2A/H2B peptide, fluorescence polarization; 320,000 tested, 0.6% active; AID 2629; inhibition, % (no concentration beside the values); in the data active = inhibition mostly above about 10%, no sharp cut-off; inactive = mostly below about 6.7%;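 also: stock transfer was 7.5 nL into about 10 µL; 0% = median of vehicle wells and 100% = median of positive control wells; one replicate is shown; the record names a cut of 25% in any replicate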
AF4-AF9 inh: blocks AF4 peptide binding to human AF9. AlphaScreen, biotin-AF4 peptide binding to FLAG-AF9. inhibition, % at 10 µM. 350,000 tested, 0.47% active. AID 651704;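 active = every replicate reaching a set inhibition limit, whatever the replicate mean, cut at about 25% in these data; inconclusive = mean inhibition reaches that limit but some replicates miss it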;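 also: 0% = plate neutral control median and 100% = total signal loss; the record names both 10 and 1 µM as test concentration; the first replicate is given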
Target sequence (P42568 whole entry, looked up): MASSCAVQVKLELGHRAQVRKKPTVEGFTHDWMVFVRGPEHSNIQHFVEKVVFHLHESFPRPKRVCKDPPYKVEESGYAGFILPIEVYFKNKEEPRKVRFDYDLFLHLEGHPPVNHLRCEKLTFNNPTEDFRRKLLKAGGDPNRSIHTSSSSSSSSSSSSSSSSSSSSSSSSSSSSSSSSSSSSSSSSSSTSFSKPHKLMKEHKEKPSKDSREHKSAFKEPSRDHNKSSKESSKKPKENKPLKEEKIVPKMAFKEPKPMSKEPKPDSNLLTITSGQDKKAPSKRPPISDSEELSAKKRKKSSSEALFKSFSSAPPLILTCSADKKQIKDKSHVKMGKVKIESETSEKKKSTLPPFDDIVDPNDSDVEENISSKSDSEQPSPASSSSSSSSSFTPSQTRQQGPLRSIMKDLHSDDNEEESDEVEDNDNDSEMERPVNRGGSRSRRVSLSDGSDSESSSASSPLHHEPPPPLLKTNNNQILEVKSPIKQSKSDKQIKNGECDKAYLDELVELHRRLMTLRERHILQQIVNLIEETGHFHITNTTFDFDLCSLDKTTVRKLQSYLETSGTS
T cruzi repl: T. cruzi replication inhibition; 300,000 tested, 1.4% active; inhibition, % (concentration not given with the values); T. cruzi beta-gal in NIH3T3, luminescence, 90 h;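 active = mean inhibition across valid replicates above about 55%, limit read from the data; inconclusive = mean below that limit but half or more replicates reach it; inactive = mean below it, under half of replicates reach it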;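 also: signal also drops with host cell toxicity which is not excluded here; 0% = plate median of DMSO wells and 100% = zero luminescence signal; higher percent means less beta-gal luminescence so fewer parasites; stock transfer was 50 nL into about 50 µL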
The depositor's hits bear a star; ? = inconclusive; . = no result given. The order is random, and some 4.3% of all compounds hit somewhere here.

SMILES | Calb FLC | Vif A3G | Beta cell apopt | A1 inh | RanGTP-Impb inh | LANA-H2A inh | AF4-AF9 inh | T cruzi repl
CCOC(=O)C1=C(C)N(CCCC(=O)O)C(=O)NC1c1ccc(Br)cc1 (stereo not drawn) | -3 | . | -1 | 0.7 | 5.0 | 1.1 | -12 | -21
COc1ccc(-c2cc(C(=O)OCC(=O)c3ccc(C)c([N+](=O)[O-])c3)c3ccccc3n2)cc1 | 3 | . | -3 | -0.8 | 0.2 | 1.7 | . | 8
N#Cc1c(-c2ccccc2)[nH]c(=O)[nH]c1=O | 8 | 14% | -2 | 0.2 | -1.0 | -0.1 | -1.7 | -5
O=c1oc(/C=C/c2ccc([N+](=O)[O-])s2)nc2ccccc12 | 3 | -4% | -2 | -1.2 | -2.8 | -6.1 | . | -20
NC(=O)CC(NC(=O)Cc1ccc(Br)cc1)c1ccc(NCCc2cccc(F)c2)c([N+](=O)[O-])c1 (stereo not drawn) | -10 | . | -7 | 0.7 | -6.6 | -0.4 | . | 5
COc1ccc(C(Sc2ccccc2)c2ccccc2)cc1OC (stereo not drawn) | 15 | . | -5 | -0.1 | -1.9 | 12* | -3.4 | 0
Cc1ccc(-n2nc3c(c2NC(=O)c2ccccc2)CS(=O)(=O)C3)cc1C | 17 | . | 3 | 0.2 | -2.3 | 2.5 | -0.5 | 0
CC(=O)Nc1ccc(NC(=O)c2cc(=O)c3cc(C)c(C)cc3o2)cc1 | 6 | 3% | -8 | -0.3 | 0.0 | 1.6 | -0.7 | -8
N#Cc1c(-c2ccco2)nc(SCC(=O)Nc2cccc(Cl)c2)[nH]c1=O | -2 | ? | . | 0.5 | -2.5 | 2.5 | . | -24
CC1CCN(S(=O)(=O)N2CCC(C(=O)N3CCC(N(C)CC4CCCO4)CC3)CC2)CC1 (stereo not drawn) | . | -2% | -5 | 0.0 | . | 5.3 | -6.3 | .
COc1ccc(CNc2ccc(C)c(C)c2)cc1 | 11 | 3% | -18 | -0.2 | -2.4 | -1.1 | -1.0 | 2
O=S(=O)(/N=C(/c1ccc(Cl)cc1)N1CCOCC1)c1ccc(Cl)cc1 | 10 | 0% | 1 | 1.2 | 1.3 | -1.0 | . | 4
Cc1cccc(C)c1NC(=O)C(C)N1CCCC1 (stereo not drawn) | -11 | 1% | -3 | 1.2 | -2.8 | -1.2 | -2.2 | 1
N#Cc1cc(-c2ccccc2)nn1-c1ccccc1 | -13 | 3% | 0 | 1.4 | 8.8 | -0.5 | . | -17
COc1ccccc1CN1CCN(Cc2cc(OC)c(OC)cc2OC)CC1 | -10 | . | 0 | 0.0 | 1.7 | 0.6 | ? | 25
NC1=NC(=O)CC(C(=O)Nc2cccc3ccccc23)S1 (stereo not drawn) | 11 | 1% | . | 0.7 | 8.1 | 3.7 | . | -19
COc1cccc2c1-c1c(O)cccc1C2=O | 9 | . | -5 | -0.2 | -2.2 | 1.7 | 0.9 | -1
CCOC(=O)C1=C(N)OC(C)=C(C#N)C1c1ccco1 (stereo not drawn) | 3 | -8% | 1 | 0.1 | -5.7 | 1.1 | -7.6 | 1
Cc1cc(OC(C)C(N)=O)nc(-c2ccccc2)n1 (stereo not drawn) | -13 | -2% | -5 | 0.3 | -3.2 | 4.8 | 0.6 | 12
CCOC(=O)N=Nc1c2ccccc2c2nc3no[nH]c3nc12 | 112* | 8% | . | . | -1.6 | . | 0.8 | 53
CN(C(=O)CSc1nnnn1C)C1(C#N)CCCCC1 | . | -3% | 0 | -0.4 | . | -1.2 | -1.7 | .
Cc1ccc(Cl)c(NC(=O)COC(=O)C2CCC2)c1Cl | 3 | -4% | -4 | -0.6 | 8.0 | 1.8 | -3.3 | -7
CCOC(=O)C1(Cc2ccccc2C)CCCN(Cc2cc(OC)c(O)c(OC)c2)C1 (stereo not drawn) | 3 | -5% | -1 | -0.4 | -0.3 | 3.7 | 5.5 | -24
COC(=O)COc1ccc(S(=O)(=O)Nc2cc(OC)ccc2OC)cc1 | 2 | 5µM* | . | . | -4.4 | . | . | 2
CCOC(=O)/C(=N\Nc1cccc(Cl)c1)Sc1nnc(-c2ccc(OC)cc2)n1C | -2 | . | -1 | -0.1 | 3.6 | 2.3 | . | 4
O=C(O)Cn1ccnc1 | 21 | 23% | -7 | 0.9 | -0.1 | -1.3 | . | -11
CC(=O)Nc1ccc2nc(NC(=O)C(Cl)(Cl)Cl)sc2c1 | -13 | -13% | -5 | -0.3 | -4.7 | -0.3 | -2.8 | -12
COc1ccc(C2(C(=O)NCCc3ccccc3)CCCC2)cc1 | -2 | 0% | 0 | 0.6 | -3.5 | -0.1 | -5.5 | 2
Cc1cc(C)c2cc(C#N)c(SCC(=O)Nc3cc(C)on3)nc2c1 | 0 | . | 0 | 0.6 | 7.1 | -1.6 | 0.4 | 12
COc1ccc(F)cc1S(=O)(=O)N1CCN(c2ccccn2)CC1 | 33 | -4% | -6 | -1.2 | 0.8 | -6.4 | 0.0 | 1
CCn1c(SCC(N)=O)nnc1-c1ccc(OC)c(OC)c1 | -7 | -2% | 0 | -0.3 | -1.5 | -0.7 | . | -19
CCC(CC)C(=O)Nc1cccc(C(=O)NCCc2ccc(S(N)(=O)=O)cc2)c1 | 11 | -1% | 3 | 0.0 | 2.1 | -5.0 | . | -8
CCOC(=O)CN1C(=O)C(O)=C(C(C)=O)C1c1ccc(F)cc1 (stereo not drawn) | 1 | 0% | -1 | -0.2 | 0.1 | 0.3 | . | -1
C=CCc1cc(Cl)ccc1OCCn1ccnc1 | -33 | . | -3 | 0.1 | -1.8 | 2.7 | 0.6 | 22
COc1ccc(/C=C\c2nc(=O)c3ccccc3o2)cc1 | 24 | 9% | . | . | ? | -8.1 | 6.6 | -39
CCn1nc(NC(=O)C(C)C)c2cc3ccc(C)cc3nc21 | 8 | . | -1 | -0.3 | 8.1 | -0.1 | -3.6 | -6
O=C(CN1C(=O)C(=O)N(CCC2=CCCCC2)C1=O)Nc1ccc(F)cc1F | . | . | -4 | -0.2 | . | -4.5 | -3.2 | .
CC1CCCN(CC(O)COCC2COc3ccccc3O2)C1 (stereo not drawn) | -11 | 2% | -9 | 0.4 | 2.5 | 2.6 | . | 8
CCN(CC)CCN(C(=O)CCS(=O)(=O)c1ccccc1)c1nc2cc(C)cc(C)c2s1 | 6 | 7% | 15 | 0.0 | -4.1 | -3.3 | 1.1 | 72*
COc1cc(CNC23CC4CC(CC(C4)C2)C3)ccc1OCc1ccccc1 | -9 | 1% | 8 | -0.9 | -3.6 | 1.9 | . | 34
CS(=O)(=O)C1=NN2C(=N)/C(=C\c3ccc(OCCOc4ccccc4)cc3)C(=O)N=C2S1 | 38 | 2% | -4 | -0.6 | 0.1 | 2.0 | . | -7
COc1ccccc1NC(=O)Nc1nnc(Cc2ccc(F)cc2)s1 | -2 | . | -6 | -0.4 | 0.4 | 2.6 | 3.4 | 7
O=C(CSc1nc2ccc(Nc3nc(N4CCOCC4)nc(N4CCOCC4)n3)cc2s1)Nc1ccccc1F | 26 | . | 7 | -0.7 | . | 5.5 | -0.5 | .
O=C(NCCC1CCCCN1S(=O)(=O)c1ccc(F)cc1)C(=O)NC1CC1 (stereo not drawn) | -5 | -2% | -12 | 0.1 | -3.3 | 3.2 | -3.6 | -6
COc1ccc(CC(=O)NC(CC(=O)O)c2cccc([N+](=O)[O-])c2)cc1 (stereo not drawn) | ? | -8% | -3 | -1.8 | -1.1 | 1.8 | -1.1 | -3
CC1=NN(C(=O)c2csc(C(C)C)c2)C(O)(C(F)(F)F)C1 (stereo not drawn) | 10 | -12% | -4 | -0.9 | 2.4 | 1.5 | -6.1 | 8
COCCCNC(=O)CCCN1C(=O)c2cccnc2Sc2ccccc21 | 17 | 0% | -5 | 0.5 | 0.8 | 0.0 | -7.9 | -11
Cc1ccc(CN2CCN(/N=C/c3ccccc3)CC2)cc1 | -1 | . | 3 | -0.8 | 3.1 | -0.5 | -1.4 | 17
CCOC(=O)Cn1c(CN2CC(C)OC(C)C2)nc2c1c(=O)n(C)c(=O)n2C (stereo not drawn) | 0 | 14% | 2 | -0.5 | 0.2 | 5.2 | -4.5 | 1
CCCCC(=O)Nc1cc(OC)c(NC(=S)NC)cc1OC | -4 | 2% | 5 | -0.2 | 3.6 | -0.9 | 0.5 | -5
CC(O)C(NS(=O)(=O)c1ccc(Cl)cc1)C(=O)OCC(=O)c1c[nH]c2ccccc12 (stereo not drawn) | -6 | -8% | 1 | 0.8 | -0.2 | 0.7 | -0.3 | -11
COC(=O)c1ccc(C(=O)Nc2ccc3c(c2)C(=O)NC3=O)cc1 | -3 | . | -3 | 0.5 | 2.3 | 0.4 | 1.5 | 10
Cc1cc(NCCCO)n2c(nc3ccccc32)c1C#N | 0 | -3% | 11 | 1.2 | 56* | 7.1 | -2.3 | -6
COc1cc(C(=O)N(C)c2nnc(-c3cccnc3)s2)cc(OC)c1OC | 3 | 3% | . | . | 2.1 | . | . | -16
O=C(O)CCN1c2ccccc2Sc2ccccc21 | 10 | 9% | 2 | 1.0 | -2.2 | 2.2 | -0.5 | -11
O=C(O)CC1(CC(=O)Nc2ccccc2N2CCOCC2)CCCC1 | -3 | 26% | -5 | 0.2 | -1.4 | 0.0 | -0.2 | -2
CCCC/C(=N\NC(=O)c1ccc(Br)o1)c1ccccc1 | -4 | 7% | 2 | 0.3 | -7.1 | -1.4 | . | 14
CCN(CC(=O)Nc1c(F)cccc1F)C(=O)c1ccc(S(=O)(=O)NCc2ccco2)cc1 | -2 | -3% | 5 | 0.9 | 2.5 | 3.9 | 0.0 | -6
O=C(Nc1ccccc1F)NC1CCCCCCC1 | -11 | -6% | 9 | -2.1 | -3.8 | 3.0 | -4.5 | 2
CC(C)(C)C(=O)N1CCN(c2nc3ccccc3s2)CC1 | -3 | -3% | 2 | -0.3 | -0.8 | -2.2 | 1.2 | 1
Other compounds:
SMILES | Calb FLC | Vif A3G | Beta cell apopt | A1 inh | RanGTP-Impb inh | LANA-H2A inh | AF4-AF9 inh | T cruzi repl
CC(=O)Nc1ccc(NC(=O)c2cc(-c3ccc(C)cc3O)n[nH]2)cc1 | -2 | 2% | -10 | 1.7 | -1.3 | -1.2 | -2.5 | -14
CSc1nc(N)n2nc(-c3ccccc3)cc2n1 | -14 | -7% | 17 | -6.4 | ? | -4.3 | -4.7 | 6
CCc1c(C(=O)NC2CCCCC2)[nH]c(C)c1C(C)=O | 5 | -4% | 7 | -0.3 | 1.7 | -3.0 | . | -3
COc1cnc(-c2ccccc2)nc1Oc1cccc(C)c1 | 0 | 8% | -5 | 0.7 | 1.3 | 0.9 | . | 7
Cc1ccc(NC(=O)Cn2cc(C(F)(F)F)cc(Cl)c2=O)cc1Cl | -18 | -1% | -3 | 0.6 | -1.8 | 8.1 | -1.5 | 12
COc1cccc(C(=O)NCCN2CCN(c3ccc(Cl)cc3)CC2)c1 | . | . | -3 | 0.0 | . | -8.2 | -1.7 | .
Cc1ccc(SCC(=O)OCC(=O)NC2CCCCCCC2)cc1 | 5 | . | . | -0.9 | -2.1 | -1.1 | ? | -6
